# High-throughput results as filed in PubChem.
# NS1 function inh: influenza NS1 inhibition; hit rate 0.4% among 270,000; Potency, µM (top dose mostly 46.1 µM), without a hit: at the top dose activity, positive = more growth; S. cerevisiae slowed by influenza A NS1, growth recovery by OD600; active means well fitted rising curve with a large enough effect; inconclusive means small, poorly fitted or top-dose-only effect; inactive means no such curve, though single readings can be large or run the other way; note: nearly all actives have a fitted effect of over 50% in size
#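 Growth recovery, yeast-based: influenza A NS1 expressed in S. cerevisiae causes slow growth, and suppressors are detected by OD600. The parent strain without NS1 is used as positive control.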
# RE007 growth inh: less growth of the S. pombe RE007 Vpr strain | S. pombe RE007 Vpr strain, BacTiter-Glo ATP luminescence, 24 h; control for the full effect not named in the record | Potency, µM (doses to about 92.2 µM), inactives show at the top dose activity change, negative = less growth | hit rate 0.21% among 360,000; active = well fitted falling curve with a large enough effect; inconclusive = small, poorly fitted or top-dose-only effect; inactive = no such curve, though single readings can be large or run the other way;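 note: % is set by controls: 0 for no effect and ±100 for the full control effect; nearly all actives have a fitted effect of over 50% in size; the assay follows cell death caused by Vpr and the record does not say whether a fall means rescue or toxicity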
#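 Fission yeast RE007 carrying one integrated HIV-1 vpr copy, seeded at OD 0.01 in PMG+AL medium with 23 nL pinned compound. Grown 24 h at 30 degrees; viability read by BacTiter-Glo luminescence after 5 min.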
# LASV entry inh: inhibitors of Lassa virus binding or cell entry; hit rate 1.2% among 300,000; Potency, µM (titrated, usually from 37.9 µM), inactives show at the highest dose activity change, negative = inhibition, actives largely listed as inhibitors; Lassa virus pseudotype entry inhibition, cell reporter; control for the full effect not named in the record; active means well fitted inhibition curve with a large enough effect; inconclusive means small, poorly fitted or top-dose-only effect, or effect the other way; inactive means flat fitted curve, though single readings scatter; tested in HEK293 cells; note: % is set by controls: 0 for no effect and ±100 for the full control effect; nearly all actives have a fitted effect of over 50% in size; luciferase read-out
# StopGo reporter: FMDV 2A StopGo reporter, luciferase signal; human cells with a luciferase reporter of 2A StopGo recoding; control for the full effect not named in the record; Potency, µM (doses to about 57.9 µM), for the others: at the highest dose signal change, negative = less light; hit rate 1.2% among 410,000; AID 1159524; active = well fitted falling curve with a large enough effect; inconclusive = small, poorly fitted or top-dose-only effect; inactive = no such curve, though single readings can be large or run the other way; tested in HEK293T cells; note: % is set by controls: 0 for no effect and ±100 for the full control effect; nearly all actives have a fitted effect of over 45% in size; luciferase light after 4 h
# Cruzain inh Det: cruzain (T. cruzi) inhibition with detergent; P25779; purified cruzain, Z-FR-AMC fluorescence, 0.01% Triton; Potency, µM, for inactives: max response, negative = inhibition, most hits filed as inhibitors; hit rate 0.43% among 200,000;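 note: plate controls were neutral wells for no effect and buffer without enzyme for full effect; nearly all actives have a fitted effect of over 40% in size; top concentration of the series not given in the record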
# Target sequence (P25779 123-467 limits assumed): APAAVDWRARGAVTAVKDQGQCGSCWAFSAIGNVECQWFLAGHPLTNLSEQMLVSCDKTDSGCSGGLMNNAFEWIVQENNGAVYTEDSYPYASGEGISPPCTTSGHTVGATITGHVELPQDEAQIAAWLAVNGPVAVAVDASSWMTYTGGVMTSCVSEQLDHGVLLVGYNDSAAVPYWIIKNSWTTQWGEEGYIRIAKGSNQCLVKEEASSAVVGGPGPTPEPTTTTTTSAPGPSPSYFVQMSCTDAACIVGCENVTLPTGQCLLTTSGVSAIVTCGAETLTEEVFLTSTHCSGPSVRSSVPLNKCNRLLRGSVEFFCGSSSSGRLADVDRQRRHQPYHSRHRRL
#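 Read-out: AMC fluorescence (360 nm excitation, 450 nm emission), four reads over 2 min, first-to-third difference used. Conditions: cruzain 1.5 nM, Z-FR-AMC 2 uM, pH 5.5 acetate, 5 mM DTT, 0.01% Triton X-100.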
# SARS PLpro yeast: SARS-CoV PLP inhibition in yeast | Potency, µM (highest dose often 32.9 µM), for the others: top-dose activity, positive = growth rescue | AID 485353 | S. cerevisiae expressing SARS-CoV PLpro, growth rescue; control for the full effect not named in the record | hit rate 0.19% among 330,000; active means well fitted rising curve with a large enough effect; inconclusive means small, poorly fitted or top-dose-only effect; inactive means no such curve, though single readings can be large or run the other way; note: 0% is about no effect; nearly all actives have a fitted effect of over 55% in size; growth read by luminescence after 48 h
# Cruzain noTriton: blocks cruzain activity in detergent-free assay; AID 1476; purified cruzain, Z-FR-AMC fluorescence, no detergent; P25779; Potency, µM, inactives show max response, negative = inhibition, usual class: inhibitors; hit rate 2.3% among 200,000;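 note: plate controls were enzyme without inhibitor for no effect and buffer without enzyme for full effect; nearly all actives have a fitted effect of over 40% in size; top concentration of the series not given in the record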
#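 Purified cruzain at 1.5 nM, pre-incubated 15 min with compound at room temperature in 100 mM sodium acetate pH 5.5, 5 mM DTT, 0.00005% Triton X-100. Reaction started with 2 uM Z-FR-AMC; AMC fluorescence increase over 60 s gives rate.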
# MARV entry inh: inhibitors of Marburg virus binding or cell entry. Marburg virus pseudotyped entry inhibition, cell reporter; control for the full effect not named in the record; about a third of the inactives were read at about 46 µM. Potency, µM (doses to about 37.8 µM), inactives show at the highest dose activity change, negative = inhibition, usual class: inhibitors. hit rate 1.8% among 300,000; active = well fitted inhibition curve with a large enough effect; inconclusive = small, poorly fitted or top-dose-only effect, or effect the other way; inactive = flat fitted curve, though single readings scatter; tested in HEK293 cells; about a fifth of its hits are not listed in these tables; note: % is set by controls: 0 for no effect and ±100 for the full control effect; luciferase read-out
# * = called active by the depositor; ? = inconclusive; nt = not tested or not shown; & = joins results of further samples; [ ] = dose if it differs, or a comment. Unless noted, calls come from the whole dose curve; as a rule, active = well fitted curve in the direction sought with a large enough effect; inconclusive = small, poorly fitted or top-dose-only effect, or another doubt; inactive = no such curve, though single readings can be large; an effect the other way counts as inactive or inconclusive. Potency is the fitted concentration of half-maximal effect.
SMILES,NS1 function inh,RE007 growth inh,LASV entry inh,StopGo reporter,Cruzain inh Det,SARS PLpro yeast,Cruzain noTriton,MARV entry inh
CCN(C(=O)c1cc2c(s1)-c1ccccc1OC2)c1cc(Cl)ccc1OC,nt,nt,nt,?,-5.9%,nt,-8%,?
COc1ccc(CN2CCNC(=O)C2CC(=O)N(C)Cc2nonc2C)c(F)c1 (configuration not stated),-1%,-21%,5%,-12%,nt,0%,nt,21%
COc1ccc(/C=C/C(=O)Oc2ccc(/C=N/NC(=O)c3ccncc3)cc2)cc1,22%,2%,nt,17%,nt,1%,nt,29%[46.1 µM]
O=S(=O)(Nc1cccc2c1CCCC2)c1cccc(C(F)(F)F)c1,-42%,?,13%,-1%,-8.7%,-23%,-4%,-39%
O=C1C2C3CCCC3=C3CCCC3C2C(=O)N1c1ccccc1 (configuration not stated),1%,1%,12%,-24%,-7.8%,1%,3%,-1%
COc1cccc(-c2nc(C(N)=O)c3c(n2)n(-c2ccc4c(c2)OCO4)c(=O)n3C)c1OC,nt,nt,?,-23%,-1.3%,nt,1%,nt
CCCOc1ccc(C(=O)Nc2ccc(-c3cc4ccccc4oc3=O)c(C)c2)cc1,nt,nt,?,?,-8.4%,nt,?,nt
O=C(c1cc(-c2ccncc2)nc2ccccc12)N1CCN(c2ccc(N3CCOCC3)nn2)CC1,?,6%,44%[14.3 µM],-18%,-1.0%,9%,9%,15µM*
CCCCCCc1cc2cc(C(=O)Nc3ccccc3)c(=O)oc2cc1O,11%,10%,3.5µM*,?,-0.4%,6%,-24%,2µM*
Cc1ccc2nc(SCC(=O)Nc3cccc(Cl)c3)nc(=O)n2c1,nt,6%,7%,20%,nt,nt,nt,6%
CN(c1ccc(OCC(=O)Nc2nc3ccccc3s2)cc1)S(=O)(=O)c1ccccc1,5%,-9%,nt,11µM*,-2.1%,-3%,?,0%
COc1cccc(NC(=O)CN(c2cccc(C(F)(F)F)c2)S(C)(=O)=O)c1,-1%,12%,?,-7%,-2.1%,14%,-3%,?
COc1cc2c(cc1NC(=O)CSc1nc3ccc(C)cc3[nH]1)oc1ccccc12,6%,nt,15%,nt,-2.1%,-23%,?,-23%
Cc1c(C)n(Cc2ccccc2)c2ccc(C(=O)NCCc3ccccc3Cl)cc12,nt,nt,-7%[46.1 µM],6%,1.6%,nt,25µM*,nt
Cc1ccc2c(c1)NC(=O)C(CC(=O)O)O2 (configuration not stated),-5%,-11%,nt,-7%,1.5%,7%,-10%,nt
Cc1onc(-c2ccccc2)c1-c1csc(COc2ccccc2)n1,-4%,-17%,nt,-24%,nt,-3%,nt,nt
O=C(Nc1cccc(C(=O)OCc2cc(=O)n3nc(C4CC4)sc3n2)c1)c1cccc(F)c1,nt,nt,4%[46.1 µM],-12%,0.0%,nt,1%,nt
O=C(c1cccc(F)c1)N1CCCC(C(=O)N2CCN(c3ccccc3)CC2)C1 (configuration not stated),-1%,0%,-7%,-17%,nt,0%,nt,?
COc1ccc(C(=O)OCC(=O)c2ccc(C3CCCCC3)cc2)cc1,6%,-4%,2.2µM*,?,1.4%,8%,-20%,?
C=CCn1c(SCC(=O)NCCOC)nnc1-c1cc2c(s1)CCC(CC)C2 (configuration not stated),-7%,-1%,-11%,-19%,-5.0%,11%,29%,?
Nc1nc(-c2ccc(Cl)cc2)nn1C(=O)c1cccnc1,-14%,7%,22%,2%,2.1%,-2%,3%,25%
COc1ccc(C=C2SC(=S)NC2=O)c(OC)c1OC,nt,9%,?,-16%,nt,nt,nt,-19%
Cc1noc(C)c1COc1cccc(C(=O)Nc2ccccc2N2CCOCC2)c1,11%,-15%,-23%,?,-5.4%,6%,42%,-9%[46.1 µM]
Cc1ccccc1NC(=O)CSCn1nnc2c(=O)[nH]c(Cc3ccc(F)cc3)nc21,nt,nt,16%[46.1 µM],7%,-1.5%,nt,-2%,-19%[46.1 µM]
O=c1onc2n1-c1cc(Br)ccc1OC2,-5%,nt,6%,nt,6.6%,nt,6%,?
# Continued.
SMILES,NS1 function inh,RE007 growth inh,LASV entry inh,StopGo reporter,Cruzain inh Det,SARS PLpro yeast,Cruzain noTriton,MARV entry inh
Cc1ccc(CSCC(=O)N2CCN(c3cc(Cl)ccc3C)CC2)cc1,nt,nt,-2%[46.1 µM],-17%,-1.1%,nt,8%,nt
CC(C)c1ccc(NC(=O)c2ccc3oc(=O)c(S(=O)(=O)c4ccc(F)cc4)cc3c2)cc1,nt,nt,26%[46.1 µM],?,1.1%,nt,-3%,?
CC(C)Cc1nnc(NC(=O)CSc2ccccn2)s1,-12%,-6%,5%,48%[activator],4.8%,6%,4%,2%
CN(C)S(=O)(=O)c1ccc(NC(=O)C2CC3C=CC2C3)cc1 (configuration not stated),-1%,-23%,0%,-1%,0.8%,-11%,8%,6%
Cc1cc(C)cc(N(CC(=O)NCc2ccc(F)cc2)C(=O)c2snc(C(N)=O)c2N)c1,-5%,-9%,?,11%,nt,0%,nt,?
Cc1ccc(N(CC(=O)NC2CCCCC2)S(=O)(=O)c2c(C)nn(C)c2C)cc1,-7%,3%,nt,-13%,nt,-7%,nt,nt
Cn1c(-c2ccc(F)cc2)cnc1NCc1ccccc1F,8%,-9%,nt,52%[activator],nt,-9%,nt,nt
CCOC(=O)NC(=O)/C(N=Nc1cc(C)cc(C)c1)=C(\C)O,nt,8%,13%,-17%,nt,-1%,nt,11%[46.1 µM]
CCN1C(=O)CC(c2cccnc2)=Nc2ccccc21,-1%,11%,nt,-9%,nt,0%,nt,nt
COc1ccc(C2C(C#N)=C(N)N(c3cccnc3)C3=C2C(=O)CC(C)(C)C3)cc1OC (configuration not stated),nt,?,14%,-11%,-5.6%,6%,-15%,1%
Cn1cc(S(=O)(=O)Nc2ccc3c(c2)OCCO3)cn1,nt,7%,2%,-15%,nt,2%,nt,-7%[46.1 µM]
CSCCC(NC(=O)COc1ccccc1)C(=O)NCC1COc2ccccc2O1 (configuration not stated),-20%,5%,-12%,1%,nt,-3%,nt,-1%
S=C(Nc1ccccc1Cl)Nc1ccc(Cl)cc1Cl,-1%,-3%,3%,?,-1.3%,-2%,5%,0%
FC(F)(F)c1cc(CCN2C(=S)NC[C@@H]2c2ccccc2)cc(C(F)(F)F)c1,10%,5%,nt,-21%,nt,0%,nt,nt
CCN(CC)C(C)C(=O)Nc1c2c(cc3c1CCC3)CCC2 (configuration not stated),8%,-12%,-13%,-18%,-3.0%,-20%,-3%,15µM*
CC1=C(C(=O)NC(C)c2ccc3c(c2)OCCO3)C2(CCC(C)CC2)OC1=O (configuration not stated),-12%,-3%,nt,0%,-3.9%,2%,-19%,nt
Cc1cc(NCCN2CCCCC2)n2c(nc3ccccc32)c1C#N,-4%,nt,nt,nt,4.1%,-1%,16%,nt
COc1cc(OC)c(NC(=O)C(NS(=O)(=O)c2cccc3nsnc23)c2ccccc2)cc1Cl (configuration not stated),nt,nt,6%[46.1 µM],10%,-6.7%,nt,?,-30%[46.1 µM]
CCN(CC(=O)NCc1cccs1)C(=O)Cc1ccc(Cl)c(Cl)c1,nt,-7%,-4%[46.1 µM],-11%,nt,1%,nt,-11%[46.1 µM]
O=C(c1ccco1)N1CCN(C(c2ccccc2Cl)c2nnnn2Cc2ccco2)CC1 (configuration not stated),-1%,3%,-29%,-14%,-1.8%,-3%,3%,-29%
O=C(CN1CCOCC1)Nc1ccc2c(c1)OC(F)(F)O2,nt,44%,4%,7%,nt,0%,nt,20%[46.1 µM]
CC(=O)N1CCC2(CC1)CC(=O)c1cc(OCC(=O)NCc3ccc(C)cc3)ccc1O2,4%,1%,6%,-9%,-8.8%,1%,13%,-6%
COc1ccc(C(C)=O)cc1COC(=O)C(CO)NS(=O)(=O)c1ccc(Br)cc1 (configuration not stated),nt,6%,nt,1%,nt,-3%,nt,-15%[46.1 µM]
COc1ccc2oc(C)c(C(=O)c3ccc([N+](=O)[O-])cc3)c2c1,-3%,2%,4%,-19%,-2.4%,-15%,0%,14%
O=c1cc(-c2cccc(F)c2)[nH]c2ccccc12,-5%,-22%,?,-9%,-2.9%&1.8%,2%,-5%&4%,?
# Further records.
SMILES,NS1 function inh,RE007 growth inh,LASV entry inh,StopGo reporter,Cruzain inh Det,SARS PLpro yeast,Cruzain noTriton,MARV entry inh
CCCOc1ccc(-c2nnn(CC(=O)c3c[nH]c4ccccc34)n2)cc1,8%,1%,1%,nt,1.9%,6%,7.9µM*,6%
Cc1cc(C)nc(/N=C(/NC(=O)Nc2ccc(Cl)c(Cl)c2)Nc2ccccc2)n1,-2%,nt,nt,nt,-2.0%,12%,?,nt
CCn1cnc2sc(C(=O)N(Cc3ccc(N(C)C)cc3)Cc3ccco3)c(C)c2c1=O,-74%,27%,?,-17%,-7.9%,-11%,?,5µM*
Cn1c(=O)c2c(-c3ccccc3)n(-c3ccccc3O)cc2n(C)c1=O,3%,-10%,?,nt,4.1%,-11%,-18%,-17%
NC1=NC(=O)C(c2ccccc2)(c2ccccc2)S1,nt,9%,-3%[46.1 µM],17%,nt,nt,nt,15%
Nc1cccc(-c2cn3cccnc3n2)c1,nt,2%,?,46%[activator],nt,-1%,nt,1%
CCCCCCCCCCCC(=O)NC1CCS(=O)(=O)C1 (configuration not stated),2%,22%,7%,-26%,nt,-1%,nt,-8%
O=C(CCN1C(=O)C2C3C=CC(C3)C2C1=O)Nc1ccc2c(c1)OCO2 (configuration not stated),-7%,-7%,18%,5%,12%,1%,4%,-33%
Cc1c(N(C)C(=O)c2ccc3c(c2)OCO3)c(=O)n(-c2ccccc2)n1C,2%,-2%,-10%,24%,-2.1%,9%,5%,-1%
Cc1ccc(-c2nc(SCC(=O)N3CCc4ccccc43)c3c(=O)n(C)c(=O)n(C)c3n2)cc1,nt,nt,18%[46.1 µM],-7%,3.4%,nt,6%,nt
O=C(Nc1ccc(OCc2ccccc2)cc1)c1cccc([N+](=O)[O-])c1,-6%,11%,2%,-12%,-2.0%,4%,-30%,?
CC(C)CC(NC(=O)C(NC(=O)OC(C)(C)C)C(C)C)C(N)=O (configuration not stated),4%,0%,-14%,-9%,nt,1%,nt,-13%[46.1 µM]
Cn1ccc(=NC=C(C#N)C#N)c2ccccc21,nt,3%,-18%,8%,nt,3%,nt,-11%[46.1 µM]
O=C(CCNC(=O)c1ccc([N+](=O)[O-])cc1)Nc1ccc(F)cc1,-2%,1%,8%[46.1 µM],-13%,nt,-1%,nt,5%[46.1 µM]
N#Cc1cc(-c2ccccc2)oc1NC(=O)c1ccco1,-19%,9%,26%,-4%,-1.1%,-3%,-1%,-8%
CCCn1nnc(NC(=S)NC(=O)c2cccs2)n1,-2%,-24%,15%,67%[activator],-3.0%,-6%,2%,?
